Source: PubChem BioAssay (Johns Hopkins Ion Channel Center)
KCNQ2 enhance: potentiators of rat KCNQ2 potassium channel; CHO-K1 KCNQ2, FluxOR thallium flux fluorescence; active compounds read high; B-score at 10 µM; O88943; 0.54% of 310,000 active;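 active = fluorescence ratio B-score at least 3 SD of library B-scores, with initial fluorescence B-score within 3 SD, cut at about 5.3 in these data; same plate scores as AID 2156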;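 also: B-score of peak minus minimum over baseline fluorescence ratio after K+ and Tl+ stimulus; positive B-score means potentiation of KCNQ2 with more thallium influx and brighter signal; only the inactives scoring about 0 or higher are listed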
Target sequence (O88943 whole entry, looked up): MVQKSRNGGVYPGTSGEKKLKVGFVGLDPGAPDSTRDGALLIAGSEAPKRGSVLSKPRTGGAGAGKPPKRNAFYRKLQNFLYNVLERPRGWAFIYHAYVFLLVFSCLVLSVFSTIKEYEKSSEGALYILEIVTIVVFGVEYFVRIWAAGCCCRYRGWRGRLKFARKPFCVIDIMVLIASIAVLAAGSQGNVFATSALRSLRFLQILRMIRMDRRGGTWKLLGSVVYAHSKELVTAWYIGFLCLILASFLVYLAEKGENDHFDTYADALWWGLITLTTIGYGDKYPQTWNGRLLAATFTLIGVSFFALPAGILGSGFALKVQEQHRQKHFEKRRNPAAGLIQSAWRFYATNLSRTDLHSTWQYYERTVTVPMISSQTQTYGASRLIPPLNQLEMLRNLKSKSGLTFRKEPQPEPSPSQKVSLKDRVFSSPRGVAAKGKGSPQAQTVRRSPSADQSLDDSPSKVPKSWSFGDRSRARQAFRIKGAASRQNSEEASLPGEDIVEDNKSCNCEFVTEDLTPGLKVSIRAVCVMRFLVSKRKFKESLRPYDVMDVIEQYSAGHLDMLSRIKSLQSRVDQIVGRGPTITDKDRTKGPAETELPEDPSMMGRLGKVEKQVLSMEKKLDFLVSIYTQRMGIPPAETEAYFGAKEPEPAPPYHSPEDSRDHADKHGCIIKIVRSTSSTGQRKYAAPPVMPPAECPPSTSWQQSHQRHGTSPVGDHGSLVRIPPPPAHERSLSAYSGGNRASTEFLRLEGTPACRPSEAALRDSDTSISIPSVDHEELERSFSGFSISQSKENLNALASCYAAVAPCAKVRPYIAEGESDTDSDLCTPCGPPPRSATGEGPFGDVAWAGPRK
KCNQ2 enhance baseline: recorded beside KCNQ2 enhance, whose call it bears; B-score; compound at 10 µM; measured here: initial fluorescence intensity artifact check;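 brightness before thallium and not channel activity; 0 = typical well and far values either way flag optical interference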
* = called active by the depositor. The list is partial; the hit share may differ from the screen's.

KCNQ2 enhance | KCNQ2 enhance baseline | canonical_smiles
2.1 | 0.82 | Cc1nnc(SCC(=O)N2CCN(c3ccccc3)CC2)n1-c1ccccc1
0.73 | -1.5 | NC(=O)CSc1nnc(NC(=O)c2ccc3ccccc3c2)s1
0.28 | 0.08 | CCOC(=O)c1sc(NC(=O)CSc2nccn2C)nc1C
0.94 | 1.8 | C/C=C(/C)C(=O)OC1c2c(ccc3ccc(=O)oc23)OC(C)(C)C1OC(C)=O (centres undefined)
0.13 | -0.01 | COc1ccccc1N1CCN(C2CC(=O)N(c3ccccc3)C2=O)CC1 (centres undefined)
0.66 | 0 | CCn1c(SCC(=O)NC2CC2)nnc1-c1ccc(F)cc1
0.1 | 0.22 | CCN(c1ccccc1)S(=O)(=O)c1ccc(Cl)c(NC(=O)Nc2ccc(Cl)cc2C#N)c1
0.58 | -1 | COc1ccc(C2CC(=O)C3=C(C2)Nc2ncnn2C3c2ccccc2C)c(OC)c1 (centres undefined)
1.2 | 0.02 | COc1cc(S(=O)(=O)Nc2cccc(C(=O)O)c2)c(OC)cc1Cl
1.1 | 0 | COc1ccc2c(c1)c(CC(=O)Nc1cccc(S(N)(=O)=O)c1)c(C)n2C(=O)c1ccc(Cl)cc1
0.03 | 1.5 | O=C(Cn1c(=O)oc2cc(S(=O)(=O)N3CCCC3)ccc21)NC1CCCc2ccccc21 (centres undefined)
1.6 | 0.24 | COc1ccccc1NC(=O)/C(=C\c1cccnc1)NC(=O)c1ccc(C)cc1
0.7 | 0.01 | Cc1ccc(-c2csc3ncnc(SCC(=O)O)c23)cc1
0.12 | -0.02 | CC(=O)N=C1SC2CS(=O)(=O)CC2N1c1ccccc1Cl (centres undefined)
1.5 | 0.5 | O=C(CCS(=O)(=O)c1ccccc1)Nc1ccccc1F
0.34 | -0.09 | CCCOC(=O)Cn1cnc2scc(-c3ccc(C)cc3)c2c1=O
0.13 | -0.32 | CC12C=CC3(O1)C(C(=O)N1CCCOC13)C2C(=O)O (centres undefined)
0.5 | 1.2 | Cc1ccc(C(=O)NN(CCC(=O)NC(C)(C)C)C2=NS(=O)(=O)c3ccccc32)cc1
0.02 | 0.64 | O=C(C1CC(c2ccccc2O)=NO1)N1CCCC1 (centres undefined)
1.7 | 0.77 | O=C(Cn1ccc2cc(S(=O)(=O)N3CCCC3)ccc21)NCc1ccco1

In the list so far, 6 contain a halogen:
KCNQ2 enhance | KCNQ2 enhance baseline | canonical_smiles
0.66 | 0 | CCn1c(SCC(=O)NC2CC2)nnc1-c1ccc(F)cc1
0.1 | 0.22 | CCN(c1ccccc1)S(=O)(=O)c1ccc(Cl)c(NC(=O)Nc2ccc(Cl)cc2C#N)c1
1.2 | 0.02 | COc1cc(S(=O)(=O)Nc2cccc(C(=O)O)c2)c(OC)cc1Cl
1.1 | 0 | COc1ccc2c(c1)c(CC(=O)Nc1cccc(S(N)(=O)=O)c1)c(C)n2C(=O)c1ccc(Cl)cc1
0.12 | -0.02 | CC(=O)N=C1SC2CS(=O)(=O)CC2N1c1ccccc1Cl (centres undefined)
1.5 | 0.5 | O=C(CCS(=O)(=O)c1ccccc1)Nc1ccccc1F

The listing continues:
KCNQ2 enhance | KCNQ2 enhance baseline | canonical_smiles
0.03 | -0.87 | Cc1ccnc(NC(=O)c2ccccc2NC(=O)c2ccc(Cl)cc2Cl)c1
1.5 | 1.7 | CC(C)c1ccc(NC(=S)NNC(=O)c2cccs2)cc1
0.04 | 0.01 | Cc1cc(-c2ccc3c(c2)COc2c4ccccc4nn2-3)on1
0.91 | 0.19 | O=C(N/N=C1/CCc2ccccc21)C1CC1
0.92 | 0.22 | CCOC(=O)N1CCN(C(=O)c2ccccc2-c2ccccc2)CC1
0.13 | -1.4 | CCn1cc(CN2CCN(CC(C)(C)C)C(CCO)C2)c2ccccc21 (centres undefined)
0.65 | 0.33 | O=C(CCCCl)OCc1cn(-c2ccc(Cl)cc2)nn1
4.6 | -0.01 | CCc1ccc(C(C)NC(=S)NCc2ccc(F)cc2)cc1 (centres undefined)
0.39 | 1.7 | COC(=O)c1cc(NC(=O)c2ccc(C)cc2)c(=O)oc1C
1.2 | 0.06 | COc1cc2c(cc1OC)/C(=C/C(=O)c1ccccc1F)NCC2
0.03 | 1 | CC(C)n1c(N2CCN(C(=O)NCc3ccccc3)CC2)nc2ccccc21
0.18 | 0.92 | O=C(NCc1cccnc1)C1CCCN1S(=O)(=O)c1ccc(Cl)cc1 (centres undefined)
2.4 | 0.06 | COCCCNC(=O)C1CC(=O)N(CCc2ccccc2)C1 (centres undefined)
0.2 | 0.15 | O=C(CCc1c[nH]c2ccccc12)N=Nc1c(O)[nH]c2ccccc12
0.03 | -2 | O=C(CSC(=S)N1CCCCC1)Nc1ncc2c(n1)CC(c1ccco1)CC2=O (centres undefined)
0.39 | -1.8 | Cc1nc2[nH]onc2c2nccc(=O)c12
1.7 | 0.62 | CCOC(=O)CSc1nnc(-c2ccccc2OC)o1
0.92 | 1.6 | CCOC(=O)c1cnc2ccc(OC)cc2c1NCCN1CCOCC1
0.1 | 0.03 | CN(c1cnn(-c2ccccc2)c(=O)c1Cl)n1cccc1
1.8 | 0.82 | COc1ccc(C(CNC(=O)Cc2ccccc2)N2CCCCC2)cc1 (centres undefined)

Molecules from the list above that contain a COOH group, in the order listed:
KCNQ2 enhance | KCNQ2 enhance baseline | canonical_smiles
1.2 | 0.02 | COc1cc(S(=O)(=O)Nc2cccc(C(=O)O)c2)c(OC)cc1Cl
0.7 | 0.01 | Cc1ccc(-c2csc3ncnc(SCC(=O)O)c23)cc1
0.13 | -0.32 | CC12C=CC3(O1)C(C(=O)N1CCCOC13)C2C(=O)O (centres undefined)

(further entries)
KCNQ2 enhance | KCNQ2 enhance baseline | canonical_smiles
3.2 | 0.53 | O=C(NCc1ncc(C(F)(F)F)cc1Cl)Nc1ccccc1
0.18 | 0.41 | CCc1ccc(-c2ccc3nnc(SCC(=O)NCC4CCCO4)n3n2)cc1 (centres undefined)
0.13 | 0.8 | COc1ccc(-n2nc3c(N4CCC(C(=O)NC5CCCCC5)CC4)nnc(C)c3c2C)cc1
1.4 | 0.41 | OCC1OC(Oc2cccc3ccccc23)C(O)C(O)C1O (centres undefined)
1.1 | -1.9 | O=C(CN1C(=O)c2ccccc2C1=O)Nc1ccccc1C(=O)NC1CCCCCC1
0.03 | -0.45 | COCCNC(=O)c1cc(S(=O)(=O)N2CCOCC2)ccc1SCc1cccc(OC)c1OC
0.96 | -0.29 | CCN1CCC2(CC1)N=C(c1ccc(F)cc1)C(=S)N2
0.55 | 0.1 | CCOC(=O)C(C)Oc1cccc2c(=O)n(CC(=O)Nc3ccc4c(c3)OCCO4)ccc12 (centres undefined)
0.66 | -0.01 | CCOC(=O)CC1(c2ccccc2)CCOC(C)(C)C1 (centres undefined)
0.81 | 0.48 | CC(=O)Nc1ccc(NC(=O)c2c(C)noc2C)cc1
0.93 | -1.1 | Cc1c(C(=O)Nc2c(F)cc(F)cc2Br)sc2ncn(CC(=O)N3CCCC3)c(=O)c12
0.65 | -0.71 | CCCc1nc(SCC(=O)Nc2ccccc2OC)c2c(=O)n(C)c(=O)n(C)c2n1
0.01 | -0.51 | N#Cc1c(-c2ccccc2)cc(C2CC2)nc1SCC(=O)c1cccs1
0.09 | -0.24 | CC(SCc1ccccc1)C(=O)NCc1ccccn1 (centres undefined)
0.38 | -0.79 | O=C(CSc1nnc(-c2ccco2)n1Cc1ccccc1)NC(=O)NCc1ccco1
1.2 | 0.43 | CC1CCCCN1C(=O)COC(=O)c1cccc(NS(=O)(=O)c2ccccc2)c1 (centres undefined)
3.1 | 0.16 | O=C(Nc1nnc(C2CC2)s1)c1n[nH]c(=O)c2ccccc12
0.02 | 1.3 | C=C1C(=O)[C@@]23[C@H](O)C[C@@H]4C(C)(C)CC[C@H](O)[C@]4(C)[C@@H]2C[C@H](O)[C@@H]1[C@H]3O
0.23 | 0.16 | Cc1cc2cc(CNC(=O)c3cccs3)ccc2[nH]1
0.73 | 0.44 | Cc1snc(S(=O)(=O)Cc2c(Cl)cccc2Cl)c1C#N
2.4 | 2.1 | C[C@H](NC(=O)[C@@H]1CSC2c3ccccc3C(=O)N21)C(=O)NC1CCCC1 (some centres undefined)
0.01 | -0.09 | CC(C)Oc1cccc(C(=O)C2CCCN(C(=O)CCc3cnn(C)c3)C2)c1 (centres undefined)
0.06 | 2.1 | [S-]C(=Nc1ccc(Cl)cc1)N[n+]1ccccc1
0.93 | -1.2 | CCOC(=O)c1cc(NC(=O)C2C3C=CC(O3)C2C(=O)O)cc(C(=O)OCC)c1 (centres undefined)
1.7 | 0.79 | O=C(NCc1ccc(F)cc1)C1CCN(S(=O)(=O)c2ccc(Br)s2)CC1
0.69 | 0.07 | O=C(O)c1cn(-c2ccccc2)nc1-c1ccncc1
0.71 | 0.71 | Cc1cc(OCC(=O)N2CCCC2)ccc1Cl
1.6 | -1.3 | O=C(O)C1=C(Nc2ccccc2)OCC1=O
0.03 | -1.8 | Cc1ccccc1-n1c(Cn2c(=O)sc3ccccc32)nnc1SC(C)C
0.61 | -0.74 | COC(=O)CCCSc1nccn1-c1ccccc1
1.3 | 1.5 | CC1CCC(NC(=O)CCS(=O)(=O)c2ccc3c(c2)NC(=O)CO3)CC1 (centres undefined)
1 | 0.87 | CCOc1ccc(-c2nc(S(=O)(=O)c3ccccc3)c(N3CCC(C(N)=O)CC3)o2)cc1
1.7 | -0.07 | CCOC(=O)C1(Cc2ccc(OC)cc2)CCN(C(=O)CCN2CCCC2=O)CC1
0.84 | -2.3 | CSCCC(NC(=O)/C(=C/c1ccco1)NC(=O)c1ccco1)C(=O)O (centres undefined)
0.83 | -0.78 | O=C(c1csc2c1CCCC2)N1CCCCC1
0.05 | 0.53 | CSc1cnc2c(N)nc(N(C)C)nc2n1
2.3 | 0.23 | O=C(NC(=S)Nc1ccccc1C(=O)O)c1ccc2ccccc2c1
0.34 | 1 | O=[N+]([O-])c1ccccc1Nc1ccc(O)cc1
0.51 | 1.6 | COc1cc(CNCc2c[nH]c3ccccc23)cc(OC)c1
0.54 | -1.1 | Cc1ccc(NC(=O)CN(C)S(=O)(=O)c2cnc[nH]2)cc1C
1.1 | 0.43 | COc1ccc(S(N)(=O)=O)cc1C(=O)OCC1CCCCC1
0.13 | 0.32 | COc1ccc(S(=O)(=O)N2CCc3ccccc32)cc1OC
0.76 | 1 | Nc1nc(SCC(=O)NCc2ccccc2)[nH]c(=O)c1NC(=O)c1ccccc1F
0.2 | 0.63 | CC(C)Cc1cc(C(=O)N2CCC(N3CCC(C(=O)N4CCOCC4)CC3)CC2)n[nH]1
1.2 | -0.1 | Cc1ccccc1-n1c(=O)n(CCc2ccccc2)c(=O)c2[nH]cnc21
1.7 | 0.14 | Cc1nnc(SCC(=O)N2CCN(Cc3ccccc3)CC2)s1
2.1 | 0.9 | Cc1ccc(-c2csc3ncnc(N4CCN(c5ccccc5O)CC4)c23)cc1
1.4 | -0.83 | COc1ccc(CCNc2nc(=S)[nH]c3cc(OC)c(OC)cc23)cc1OC
1.5 | -0.68 | CC(=O)Nc1c(C(=O)c2ccc(F)cc2)oc2ccccc12
1.5 | -0.04 | O=C1Cc2cccc3cccc1c23
0.45 | 0.53 | CCc1cc(=O)oc2cc(C)cc(OCC(=O)N3CCC(C(=O)O)CC3)c12
0.95 | -0.21 | CCCC1=NN(c2ccc([N+](=O)[O-])cc2)C(=O)/C1=C/N(C)C
0.68 | -1.9 | COc1ccc(N2CCN(C(=O)CSc3nnc4c(C)cc5ccc(C)c(C)c5n34)CC2)cc1
0.69 | -0.82 | CNC(=O)CSCCn1c(SCC(=O)NC)nc2ccccc2c1=O
0.42 | 1.2 | Cn1cc(Br)c(C(=O)Nc2ncc(Br)s2)n1
0.06 | -0.87 | CCOc1ccc(CCNS(=O)(=O)c2cn(C)cn2)cc1OCC
0.27 | 0 | CC(=O)Nc1ccc(S(=O)(=O)N2CCC(=O)Nc3ccccc32)cc1
0.83 | 0.22 | CS(=O)(=O)N(CC(=O)Nc1ccccc1C(=O)N1CCCC1)c1cccc([N+](=O)[O-])c1
0.56 | -0.81 | OC[C@@H](O)C1OC2NC(=S)OC2C1O (some centres undefined)
0.03 | 0.46 | COc1ccc(NCc2ccc(OC)c(OC)c2)cc1

Remaining list, next part
KCNQ2 enhance | KCNQ2 enhance baseline | canonical_smiles
0.58 | 0.13 | CCOC(=O)c1sc(=NC(=O)c2ccc(C)cc2)n(C)c1C
1.4 | -0.86 | Cc1cc(C)nc(N2CCCC(C(=O)Nc3nnc(C)s3)C2)n1 (centres undefined)
0.51 | 0.48 | Cc1ccc(-n2c(O)c(C=NC3CCS(=O)(=O)C3)c3ccccc3c2=O)cc1C (centres undefined)
0.06 | -0.44 | O=[N+]([O-])c1ccc(N2CCN(S(=O)(=O)c3ccccc3[N+](=O)[O-])CC2)cc1N1CCc2ccccc2C1
0.51 | -0.24 | CC(C)OCCCNC(=O)c1ccc(Br)cc1
0.56 | 0.11 | CCOC(=O)C1CCN(Cc2ccc(OC)cc2OC)CC1
0.96 | -0.02 | O=C(NC1CCCCCC1)c1ccc(OCC2CCCO2)cc1 (centres undefined)
0.74 | 0.02 | Cc1oc(C)c2c(=O)ccc3c(c12)OC(N)=C(C#N)C3c1ccccc1 (centres undefined)
1.2 | -0.8 | COc1cccc(/C=C/C(=O)N(C)CC(=O)Nc2ccc(Cl)c(C(F)(F)F)c2)c1
0.96 | -0.9 | CCCCn1c(-c2ccc(Cl)c(Cl)c2)nc2cc3[nH]c(=O)c(C(C)C)nc3cc21
2.5 | -3.1 | Cc1cc(C)n(-c2ncc(-c3ccccc3)nn2)n1
1.9 | -1.3 | CC(=O)c1sc(Nc2ccccn2)nc1C
0.08 | -1.1 | COc1ccc(CNC(=O)CSCc2ccccc2Cl)cc1
0.26 | 0.55 | O=C1CC(c2ccc(O)c(O)c2)Oc2cc(O)cc(O)c21 (centres undefined)
0.75 | 2.2 | CC(=O)Nc1cccc(CP(=O)(c2ccccc2)c2ccccc2)c1
0.7 | -0.71 | Cc1cc(Cl)ccc1NNC(=O)c1snnc1C
0.67 | -1.5 | Cc1occc(=O)c1OCc1ccc(Cl)cc1Cl
